# PABP polyA inh: PABP-poly(A) binding inhibition; P11940; PABP-poly(A) RNA binding, fluorescence polarization; 290,000 tested, 1% active; inhibition, % at 35 µM;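 active = 50% or more with normal probe brightness, or confirmed in later tests; inconclusive = above 50% with abnormal brightness, or retests that disagree; inactive = below 50% or failed in later tests; about a fifth of its hits are not listed in these tables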;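 also: calls also rest on retests at 20 µM and on dose response follow-up; controls were probe without protein and protein plus probe with vehicle; some compounds called inactive have numbers as strong as hits; many hits fall short of the cut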
# CSC inhib: cancer stem cell inhibition | cancer stem cell-like cells viability, luminescence | inhibition, % at 7.5 µM | 300,000 tested, 1.1% active;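 active = mean at 75% or more and at least half the replicates too; inconclusive = mean and replicates disagree; tested in HMLE shEcad cells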;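 also: 0% = median of negative and 100% = median of positive control wells; the first replicate is given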
# eIF4H inh: inhibitors of RNA binding by human eIF4H; Q15056; eIF4H fluorescence polarization binding assay; inhibition, % at 35 µM; 290,000 tested, 0.94% active;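 active = 50% or more with normal probe brightness, or confirmed in later tests; inconclusive = above 50% with abnormal brightness, or retests that disagree; inactive = below 50% or failed in later tests; about a fifth of its hits are not listed in these tables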;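 also: calls also rest on retests at 20 µM and on dose response follow-up; 0% = protein and probe with vehicle and 100% = probe without protein; strong numbers were not always called active; many hits fall short of the cut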
# UUG fidelity: modulators of start codon recognition fidelity in yeast. 350,000 tested, 0.13% active. S. cerevisiae UUG-firefly luciferase reporter, luminescence/redox ratio. activity score, % at 18.7 µM. AID 602363;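 active = replicate mean at a twofold rise or more, about +100% in these data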;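 also: firefly luciferase made from a UUG start codon reports start codon fidelity; reporter light over untreated wells divided by growth signal over untreated wells; some hits fall short of that in this replicate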
# Rce1 inh: blocks yeast Ras-converting enzyme | yeast membranes, quenched prenylated peptide cleavage fluorescence | calls only | AID 2563 | 290,000 tested, 0.27% active;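 active = fall in fluorescence gain of 50% or more versus controls, with final raw signal at or below 3038400; inconclusive = same 50% fall but final raw signal above 3038400; inactive = fall in fluorescence gain under 50%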;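 also: plate controls were neutral control wells for no effect and wells lacking membranes for full effect; tested at 10 µM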
# Target sequence (Q03530 whole entry, looked up): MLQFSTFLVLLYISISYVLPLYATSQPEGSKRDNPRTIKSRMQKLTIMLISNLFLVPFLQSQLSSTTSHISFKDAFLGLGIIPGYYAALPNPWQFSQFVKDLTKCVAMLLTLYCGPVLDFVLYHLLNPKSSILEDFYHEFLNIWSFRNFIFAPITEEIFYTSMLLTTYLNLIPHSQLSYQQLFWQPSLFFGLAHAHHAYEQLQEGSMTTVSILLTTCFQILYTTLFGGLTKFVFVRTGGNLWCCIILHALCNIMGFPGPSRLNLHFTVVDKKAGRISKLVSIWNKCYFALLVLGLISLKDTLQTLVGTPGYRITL
# MT1-MMP act inh: blocks activation of human MT1-MMP | P50281 | HT1080 RFP-PRO-GFP cells, GFP/RFP ratio fluorescence, overnight; percent of plate control window, DMSO zero | GFP/RFP ratio change, % at 20 µM | 360,000 tested, 0.061% active | AID 651647;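 active = GFP/RFP ratio change of at least 30% with cell ATP level not reduced by more than half and red fluorescence within 50% of control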; also: strong numbers were not always called active
#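 Test system: HT1080 cells expressing an RFP-PRO-GFP fluorescent reporter construct / Compound dosing: single-point 20 µM compound, 1% DMSO / Schedule: cells overnight before dosing, compound overnight, 37 °C, 5% CO2 / Evaluation: GFP/RFP fluorescence ratio / Control set: DMSO and RFP-L50D-GFP cell wells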
# HIV Env fusion: HIV envelope-mediated fusion inhibition. HeLa-JRFL Env/CEM21 cell fusion, luciferase. inhibition, % at 12.3 µM. 360,000 tested, 1.1% active;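 active = mean replicate inhibition score of at least 50 and every replicate individually at or above 50; inconclusive = only one of the two criteria met; inactive = mean below 50 and not all replicates reaching 50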;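 also: 0% = plate neutral controls and 100% = maraviroc near 300 nM; one replicate is shown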
# eIF4H inh retest: also measured in eIF4H inh; calls as there; inhibition, %; compound at 20 µM; confirmation average;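 mean of two retest wells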
# PABP polyA inh retest: also measured in PABP polyA inh; calls as there; inhibition, %; compound at 20 µM; confirmation repeats;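 mean of two retest wells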
# MT1-MMP act inh RFP: second read-out of MT1-MMP act inh, no call of its own (marks repeat the call); RFP signal change, %; measured here: RFP expression control read;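 0 = vehicle wells; hits needed this value within 50% of zero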
# * hit, by the source's call; i = inactive; ? = inconclusive; nt = not tested or not shown; & = joins results of further samples.
SMILES,PABP polyA inh,CSC inhib,eIF4H inh,UUG fidelity,Rce1 inh,MT1-MMP act inh,MT1-MMP act inh RFP,HIV Env fusion,others
Cn1ccnc1SCC(=O)Nc1ccc2ccccc2c1,-13,-9,-10,nt,i,8,2,nt,
COc1cc(C(=O)Nc2c(C(=O)O)[nH]c3ccc(Br)cc23)cc(OC)c1OC,7,-18,-4,-14,i,9,-3,17,
Cc1c(Nc2nc3ccccc3n3cnnc23)cccc1[N+](=O)[O-],-13,-14,-5,-17,i,-10,-3,6,
CCOC(=O)C1CCCN(CC(=O)Nc2ccc(C(=O)Nc3ccccc3OC)cc2)C1 (stereo not given),nt,nt,nt,-6,nt,1,-6,15,
CC(NC(=O)Nc1ccccc1)C(c1cccs1)N1CCN(c2ccccc2)CC1 (stereo not given),0,-3,-9,-12,nt,-4,-5,-32,
Cc1cccnc1NC(=O)CCNS(=O)(=O)c1ccc2c(c1)c(=O)n(C)c(=O)n2C,-12,-6,-5,nt,i,1,0,3,
CCCCn1c(N)c(N(CCOC)C(=O)CSCc2c(C)noc2C)c(=O)[nH]c1=O,7,9,-3,-18,i,-4,0,1,
CCC(=O)c1cc(-c2nc3ccccc3n2C)n(C)c1,-2,nt,-4,-26,nt,4,2,-412,
COc1ccc2c(c1)C1CC(C)(NC(=O)C1S(=O)(=O)c1ccc(F)cc1)O2 (stereo not given),4,-8,-17,nt,i,-2,-3,10,
Cc1cc(=O)oc2cc(OCC(=O)Nc3nnc(C4CC4)s3)ccc12,-6,-2,-8,-14,i,6,1,5,
Cc1ccccc1Nc1ncnc2c1cnn2-c1ccccc1,7,-5,-1,-19,i,-7,-4,-17,
COc1cccc(NC(=O)CN(C)S(=O)(=O)c2ccc3c(c2)CCC(=O)N3)c1,-5,nt,-8,-10,i,6,3,nt,
COc1cccc(C(=O)Nc2ncc3c(n2)CC(c2ccc(OC)cc2OC)CC3=O)c1 (stereo not given),1,nt,-4,13,i,-6,-10,27,
CCOC(=O)c1cnc2ccccc2c1Nc1cc(C(=O)O)ccc1C,3,-7,17,nt,nt,-1,-3,9,
CCSc1ccccc1C(=O)Nc1ccc2c(c1)OCO2,-1,-6,1,nt,i,-2,-2,3,
CC(C(=O)O)N1c2cccc3cccc(c23)S1(=O)=O (stereo not given),16,-5,4,10,i,-3,0,-17,
COCCN1C(=O)C(CC(=O)Nc2ccc(C(C)=O)cc2)SC1=Nc1ccccc1 (stereo not given),5,-3,4,-6&5,nt,1&1,-2&1,-14,
Cc1cc(CNC(=S)Nc2ccc(Br)cc2Cl)nn1C,3,-1,-7,nt,i,-1,-3,5,
COc1cc(C#N)c(NC(=S)N2CCOCC2)cc1OC,-1,-1,-5,nt,i,nt,nt,nt,
CCOc1ccccc1NC(=O)CCc1nnc2ccc(NCc3ccco3)nn12,11,-6,13,-20,i,-5,-5,6,
O=C(NCCOc1ccccc1F)C1CCC(=O)N(CCc2cccc(F)c2)C1 (stereo not given),1,6,1,-15,i,-2,-1,7,
Cc1cc(C)n(-c2nc3c(c(=O)[nH]c(=O)n3C)n2Cc2cccc(Br)c2)n1,-3,-9,8,2,i,0,0,nt,
OC(CNC1CCCC1)COc1ccc(Cl)cc1 (stereo not given),-3,-1,-5,-4,i,1,1,-7,
COCCCNC(=O)c1ccccc1-c1cc(C)no1,-2,-12,-7,nt,i,0,7,-2,
COc1ccc(/C=N/NC(=O)c2sc3nc(C)cc(C)c3c2N)cc1,5,-7,-16,1,i,-6,-4,-25,
O=C(COC(=O)C1CCN(S(=O)(=O)c2cccs2)CC1)Nc1ccc(F)cc1Cl,nt,-13,nt,0,nt,-4,-1,nt,
O=C(Cc1cccc2ccccc12)N/N=C/c1ccc(Sc2nc3ccccc3s2)o1,-4,33,-11,-13,i,-1,-6,-108,
CCOc1cccc(NC(=O)/C(C#N)=C/c2cccnc2)c1,5,-9,-8,nt,i,0,4,-16,
COc1ccc(C(=O)c2ccc(CC(=O)O)s2)cc1,4,-11,1,nt,i,-4,0,-3,
COC(=O)CN(C)C(=O)c1cccc(OC2CCN(S(=O)(=O)N(C)C)CC2)c1,-4,-11,0,-12,i,-3,-1,4,
CCOc1ccc(C(=O)NCCCCNC(=O)c2ccc(OCC)cc2)cc1,-3,-10,-11,8,nt,nt,nt,-15,
CCOC(=O)CSC1=NN2CCS(=O)(=O)N=C2S1,-12,-20,-8,nt,i,-2,6,1,
CC(NC(=O)c1ccccc1C(=O)O)c1ccc(-n2ccnc2)cc1 (stereo not given),9,-19,-2,-10,i,-5,-3,2,
CCOC(=O)c1c(C)n(-c2ccc(C)cc2)c2ccc(OCC(O)CNCC3CCCO3)cc12 (stereo not given),-2,118*,2,nt,i,-4,-10,nt,
O=C(O)c1ccccc1OC(=O)C12CC3CC(CC(C3)C1)C2,-8,-4,0,nt,i,-2,-1,8,
CCOC(=O)N1CCN(C(=O)CN(c2cccc(C(F)(F)F)c2)S(C)(=O)=O)CC1,8,-3,8,-5,i,4,2,-57,
O=C(NCCCn1ccnc1)Nc1ccc(Cl)cc1,9,nt,-10,nt,i,1,5,43,
COCC(=O)NNS(=O)(=O)c1ccccc1[N+](=O)[O-],-2,3,-4,-5,i,1,3,23,
COc1ccc(CCN2C(=O)CC(N3CCOCC3)C2=O)cc1 (stereo not given),6,-12,21,-9,nt,-2,6,nt,
Cc1nn(C)c(C)c1NC(=O)CN1CCC(O)(c2ccc3c(c2)OCO3)CC1,-10,5,-6,-15,i,1,-1,nt,
Cc1nnc(SCC(=O)Nc2cc(C(N)=O)cc(C(N)=O)c2)n1-c1ccccc1,1,-12,5,-8,i,1,2,-7,
Cc1cc(C)c(S(=O)(=O)Nc2ccc(-c3cn4ccccc4n3)cc2)c(C)c1,2,3,-7,-13,i,3,-6,nt,
NNC(=O)c1oc2nc(-c3cccs3)cc(-c3ccco3)c2c1N,22*,9,?,0,i,-51,7,-9,PABP polyA inh retest=122*
COc1cc(OC)c(N(C)S(=O)(=O)c2cccc(C(=O)OCC(=O)c3c[nH]c4ccccc34)c2)cc1Cl,2,nt,-2,-17,i,-6,-29,nt,
Cc1cc(C)nc(NC(N)=S)n1,0,nt,2,-14,i,3,6,14,
CCN(c1ccccc1)C1(O)C(=O)c2ccccc2C1=O,-9,-12,7,nt,i,-2,1,-12,
CC(=O)CCS(=O)(=O)c1ccc(NC(C)=O)cc1,-8,7,6,23,nt,-7,-5,nt,
O=C1NC(NS(=O)(=O)c2ccccc2)(C(F)(F)F)C(=O)N1c1cccc(Cl)c1 (stereo not given),17,nt,7,5,i,-3,-2,11,
CCC(NC(=O)CN1CCN(C(=O)c2cccs2)CC1)c1ccc(C)cc1 (stereo not given),nt,-9,nt,1,nt,-1,0,-420,
CCCc1cc(=O)oc2cc(OCc3ccc(OC)cc3)c(Cl)cc12,8,11,-2,-5,i,7,2,-2,
Cc1nc2ccc(NC(=O)N3CCSCC3)cc2nc1C,9,-7,-8,nt,i,3,4,nt,
CC(C)(C)c1ccc(C(=O)N2CCCCCC2=O)cc1,0,-1,1,279*,i,-3,1,91*,
CCOC(=O)/C=C/C(=O)N1CCN(C(=O)/C=C/C(=O)OCC)CC1,3,-3,11,-4,i,2,3,-3,
CC12CCC(=O)N1C(C(=O)Nc1ccc(S(=O)(=O)N3CCCCC3)cc1)CS2 (stereo not given),nt,nt,nt,nt,i,1,2,-5,
CC(=O)Nc1ccc(S(=O)(=O)N(C)CC(=O)NC2CCCC(C)C2C)cc1 (stereo not given),nt,nt,nt,nt,i,-1,0,-4,
COc1ccc(C/C(N)=N/OC(=O)C(c2ccccc2)c2ccccc2)cc1OC,-6,32,13,nt,nt,2,-8,nt,
C=C(C)CNC(=O)CCc1nnc(Cc2cccc(C(F)(F)F)c2)o1,-3,15,-6,nt,i,-2,2,-92,
Cn1cnnc1SCC(=O)Nc1ccc2nc(SCc3ccccc3F)sc2c1,6,27,-4,-20,i,3,-3,nt,
COc1cccc(C(C)(O)c2nc(-c3cccc(C(F)(F)F)c3)cs2)c1 (stereo not given),nt,nt,nt,-21,nt,0,-4,5,
Cc1cccc(-c2ccc3c(c2)C2CC3CCN2C)c1 (stereo not given),nt,nt,nt,-18,nt,3,6,-4,

# 2 records picked at random from those above:
SMILES,PABP polyA inh,CSC inhib,eIF4H inh,UUG fidelity,Rce1 inh,MT1-MMP act inh,MT1-MMP act inh RFP,HIV Env fusion,others
C=C(C)CNC(=O)CCc1nnc(Cc2cccc(C(F)(F)F)c2)o1,-3,15,-6,nt,i,-2,2,-92,
CCOC(=O)/C=C/C(=O)N1CCN(C(=O)/C=C/C(=O)OCC)CC1,3,-3,11,-4,i,2,3,-3,

# Continued:
SMILES,PABP polyA inh,CSC inhib,eIF4H inh,UUG fidelity,Rce1 inh,MT1-MMP act inh,MT1-MMP act inh RFP,HIV Env fusion,others
CCCNC(=O)Nc1nc2ccccc2s1,18,15,-7,nt,i,-1,1,-3,
O=C(CN1C(=O)C2CC=C(Cl)CC2C1=O)NCc1ccccc1 (stereo not given),53,-18,40,-9,i,-5,2,nt,eIF4H inh retest=27;PABP polyA inh retest=31
CS(=O)(=O)N(CC(=O)Nc1ccccc1Sc1ccccc1)C1CCCCC1,-7,3,-4,-13,i,-5,-2,69,
Clc1ccc2[nH]c(-c3ccccc3)cc2c1,4,19,-8,-6,i,-6,-11,nt,
Cc1cc(Nc2ccccc2)n(C(=O)c2ccc(N)cc2)n1,-13,-14,-4,0,i,1,-4,nt,
CCCCc1nnc(NC(=O)Cn2cnc3ccccc3c2=O)s1,-10,-3,4,nt,i,3,2,0,
COc1ccc(N(C)S(=O)(=O)c2cccc(C(=O)Nc3nc(C)c(C(C)=O)s3)c2)cc1,nt,nt,nt,-17,nt,2,-6,26,
C(=C\c1nnc2c3ccccc3ncn12)/c1ccccc1,7,37,3,nt,i,6,-9,12,
N#CC(=C=[N-])c1nc2ccccc2nc1-[n+]1cccc(NC(=O)c2ccccc2)c1,16&16,-3&-6,22&6,nt,i,2,-1,5,
O=c1c2ccccc2nc2n1C(CSc1ccc(Br)cc1)CN2 (stereo not given),1,-8,-2,-15,i,0,2,nt,
CN1C(=O)C2(C(C#N)=C(N)Oc3c2oc(CO)cc3=O)c2ccccc21 (stereo not given),-2,-8,-1,-7,i,1,5,nt,
CC(NC(=O)c1cnccn1)c1ccc(S(N)(=O)=O)cc1 (stereo not given),0,-3,12,nt,i,-3,-2,-14,
Cc1cc(NC(=O)CSc2ccc(-c3ccc(Br)cc3)nn2)no1,-26,-8,1,-14,i,0,-1,-2,
Cc1ccc(C(=O)NCC(=O)N(C)Cc2cccc(F)c2)s1,nt,nt,nt,-11,nt,9,2,-11,
C=CC(=O)N1C/C=C\C(c2ccc(OC)cc2)N(Cc2ccc(F)cc2)C(=O)C1 (stereo not given),6,nt,-6,6,i,3,6,19,
COc1ccc(CCNC(=O)CSc2nc3[nH]c(=O)cc(O)c3s2)cc1,nt,-22,nt,-12,nt,-5,3,5,
CCN(CC)C(=O)c1ccc(Nc2nnc(C)c3ccccc23)cc1,3,4,1,nt,i,-1,-6,-8,
CC(=O)NC1C(OCCOc2ccc(Cl)cc2C)OC(CO)C(O)C1O (stereo not given),2,-3,-2,-13,i,1,1,-8,
O=C(Nc1nc(-c2ccccc2)cs1)C1CCCN(S(=O)(=O)c2ccccc2)C1 (stereo not given),-7,nt,-8,3,i,-14,-24,97*,
COc1ccc(C(=O)N/N=C2/SCC(=O)N2Cc2ccc3c(c2)OCO3)cc1OC,-5,-21,3,-11,i,5,1,nt,
